Compound activity deposited in PubChem BioAssay by several laboratories.
eIF4H inh: human eIF4H binding inhibitors, primary screen, translation initiation inhibitor project, biochemical, uHTS, fluorescence polarization. eIF4H fluorescence polarization binding assay. inhibition, % at 35 µM. Eukaryotic translation initiation factor 4H (Homo sapiens), Q15056. 290,000 compounds, 0.94% hits. AID 2012, 2009;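 active means 50% or more with normal probe brightness, or confirmed in later tests; inconclusive means above 50% with abnormal brightness, or retests that disagree; inactive means below 50% or failed in later tests; about a fifth of its hits are not listed in these tables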;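 further: calls also rest on retests at 20 µM and on dose response follow-up; 0% = protein and probe with vehicle and 100% = probe without protein; strong numbers were not always called active; many hits fall short of the cut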
PABP FP inh: PABP poly(A) RNA binding inhibitors, primary screen, biochemical, fluorescence polarization, uHTS | Polyadenylate-binding protein 1 (Homo sapiens), P11940 | 290,000 compounds, 1% hits | inhibition, % at 35 µM;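 active means 50% or more with normal probe brightness, or confirmed in later tests; inconclusive means above 50% with abnormal brightness, or retests that disagree; inactive means below 50% or failed in later tests; about a fifth of its hits are not listed in these tables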;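 further: calls also rest on retests at 20 µM and on dose response follow-up; controls were probe without protein and protein plus probe with vehicle; some compounds called inactive have numbers as strong as hits; many hits fall short of the cut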
Target sequence (P11940 whole entry, looked up): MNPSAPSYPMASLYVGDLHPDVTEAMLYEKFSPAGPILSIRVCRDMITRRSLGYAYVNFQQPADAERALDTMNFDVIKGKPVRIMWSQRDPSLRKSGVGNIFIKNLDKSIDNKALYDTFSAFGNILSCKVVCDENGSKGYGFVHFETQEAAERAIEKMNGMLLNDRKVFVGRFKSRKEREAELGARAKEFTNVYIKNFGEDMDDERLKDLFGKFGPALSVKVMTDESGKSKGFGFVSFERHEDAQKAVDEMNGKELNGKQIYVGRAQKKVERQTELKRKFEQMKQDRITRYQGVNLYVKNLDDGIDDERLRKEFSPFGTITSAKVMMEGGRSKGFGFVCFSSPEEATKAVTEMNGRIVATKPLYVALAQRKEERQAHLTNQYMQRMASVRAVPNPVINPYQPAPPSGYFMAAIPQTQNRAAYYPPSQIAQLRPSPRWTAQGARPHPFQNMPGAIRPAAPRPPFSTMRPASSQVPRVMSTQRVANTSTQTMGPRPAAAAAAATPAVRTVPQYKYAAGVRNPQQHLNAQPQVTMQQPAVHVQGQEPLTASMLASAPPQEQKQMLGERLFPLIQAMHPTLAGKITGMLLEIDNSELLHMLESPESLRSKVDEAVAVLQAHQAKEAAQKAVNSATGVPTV
Rce1 inhib: yeast Rce1p protease inhibitors, primary screen, biochemical, fluorescence, cell-free homogeneous | 290,000 compounds, 0.27% hits | yeast membranes, quenched prenylated peptide cleavage fluorescence | calls only;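 active means fall in fluorescence gain of 50% or more versus controls, with final raw signal at or below 3038400; inconclusive means same 50% fall but final raw signal above 3038400; inactive means fall in fluorescence gain under 50%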;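 further: plate controls were neutral control wells for no effect and wells lacking membranes for full effect; tested at 10 µM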
CSC inhib: cancer stem cell viability inhibitors, primary screen, luminescence; cancer stem cell-like cells viability; inhibition, % at 7.5 µM; 300,000 compounds, 1.1% hits;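 active means mean at 75% or more and at least half the replicates too; inconclusive means mean and replicates disagree; tested in HMLE shEcad cells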;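 further: 0% = median of negative and 100% = median of positive control wells; the first replicate is given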
MT1-MMP act inh: blockers of MT1-MMP proenzyme processing, primary screen, HT1080 RFP-PRO-GFP cells, GFP/RFP fluorescence. GFP/RFP ratio fluorescence, overnight; percent of plate control window, DMSO zero. GFP/RFP ratio change, % at 20 µM. 360,000 compounds, 0.061% hits;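 active means GFP/RFP ratio change of at least 30% with cell ATP level not reduced by more than half and red fluorescence within 50% of control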; further: strong numbers were not always called active
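Assay system: HT1080 cells carrying an RFP-PRO-GFP reporter | Dosing: Single dose of 20 µM compound, 1% DMSO final | Incubation: Cells overnight before dosing, compound overnight, 37 °C, 5% CO2 | Evaluation: GFP/RFP fluorescence ratio | Control set: DMSO and RFP-L50D-GFP cell wells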
HIV Env fusion: inhibitors of HIV-1 Env-driven cell-cell fusion, primary screen, HeLa-JRFL effector, CEM21 target cells, luciferase; 360,000 compounds, 1.1% hits; inhibition, % at 12.3 µM; AID 651610, 2012;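 active means mean replicate inhibition score of at least 50 and every replicate individually at or above 50; inconclusive means only one of the two criteria met; inactive means mean below 50 and not all replicates reaching 50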;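 further: 0% = plate neutral controls and 100% = maraviroc near 300 nM; one replicate is shown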
Yeast UUG start: modulators of yeast start codon fidelity, primary screen, whole organism, S. cerevisiae, single point, plate reader. AID 602363, 2012. S. cerevisiae UUG-firefly luciferase reporter, luminescence/redox ratio. activity score, % at 18.7 µM. 350,000 compounds, 0.13% hits;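 active means replicate mean at a twofold rise or more, about +100% in these data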;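 further: firefly luciferase made from a UUG start codon reports start codon fidelity; reporter light over untreated wells divided by growth signal over untreated wells; some hits fall short of that in this replicate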
eIF4H inh retest: second read-out of eIF4H inh, no call of its own (marks repeat the call); inhibition, %; compound at 20 µM; confirmation average;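 mean of two retest wells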
PABP FP inh retest: also measured in PABP FP inh; calls as there; inhibition, %; compound at 20 µM; confirmation repeats;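 mean of two retest wells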
MT1-MMP act inh RFP: second read-out of MT1-MMP act inh, no call of its own (marks repeat the call); RFP signal change, %; measured here: RFP expression control read;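 0 = vehicle wells; hits needed this value within 50% of zero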
* hit, by the source's call; i = inactive; ? = inconclusive; / = no result given; [ ] = another dose, or the depositor's remark.

SMILES	eIF4H inh	PABP FP inh	Rce1 inhib	CSC inhib	MT1-MMP act inh	MT1-MMP act inh RFP	HIV Env fusion	Yeast UUG start	others
CCCCNC(=O)C1(C)CCN1C(=O)c1ccccc1Br (stereo not given)	/	/	/	/	1	-1	6	9
Cc1ccc(C(=O)c2oc3ccc(Cl)cc3c2NC(=O)CN2CCN(C)CC2)cc1	-17	-11	i	38	-2	0	-4	13
Cc1cc(C)cc(NS(=O)(=O)c2cc3[nH]c(=O)c(=O)[nH]c3cc2C)c1	2	2	i	-36	6	1	5	-14
CCCN1C/C(=C/c2ccc3c(c2)OCO3)C(=O)/C(=C/c2ccc3c(c2)OCO3)C1	-8	-3	i	87*	-2	-4	-30	6
CCOC(=O)c1cc(-c2ccccc2)sc1N	-10	-1	i	5	-1	-4	/	2
CC1(C)C2CCC1(CS(=O)(=O)NCCc1c[nH]c3ccccc13)C(=O)C2 (stereo not given)	-11	4	i	0	-2	1	-1	-24
NC(=O)CC(NC(=O)Cc1cccc2ccccc12)c1ccc(N2CCCCCCC2)c([N+](=O)[O-])c1 (stereo not given)	-4	2	i	31	5	0	-5	-14
Cc1cccc(Oc2nc(-c3cccc([N+](=O)[O-])c3)nc3ccccc23)c1C	0	0	i	4	7	2	-12	-18
COc1cc2nc(CN3CCOCC3)n(CC(=O)N3CCCCCC3)c(=O)c2cc1OC	-1	13	i	-4	6	4	13	-17
COc1cc(C(c2sc3nc(C)nn3c2O)N2CC(C)CC(C)C2)cc(OC)c1OC (stereo not given)	7	-18	i	-16	15	2	6	21
Fc1ccccc1CNCc1ccc2c(c1)OCO2	-8	-1	i	-17	1	0	10	4
Cc1ccnc(NS(=O)(=O)c2cc(-c3cc(C)no3)ccc2C(C)C)c1	8	13	i	13	-2	0	-10	/

Overlap with the part before: 4 entries; new compounds follow.
SMILES	eIF4H inh	PABP FP inh	Rce1 inhib	CSC inhib	MT1-MMP act inh	MT1-MMP act inh RFP	HIV Env fusion	Yeast UUG start	others
COc1cc2nc(CN3CCOCC3)n(CC(=O)N3CCCCCC3)c(=O)c2cc1OC	-1	13	i	-4	6	4	13	-17
COc1cc(C(c2sc3nc(C)nn3c2O)N2CC(C)CC(C)C2)cc(OC)c1OC (stereo not given)	7	-18	i	-16	15	2	6	21
Fc1ccccc1CNCc1ccc2c(c1)OCO2	-8	-1	i	-17	1	0	10	4
Cc1ccnc(NS(=O)(=O)c2cc(-c3cc(C)no3)ccc2C(C)C)c1	8	13	i	13	-2	0	-10	/
CC1CCC(C(C)C)C(OC(=O)CSc2n[nH]c(=O)[nH]c2=O)C1 (stereo not given)	6	-2	i	-5	-1	-5	-21	-9
Cc1ccc(O)c(NC(=O)C2CCCN2C(=O)OCc2ccccc2)c1 (stereo not given)	10	13	i	5	7	0	-2	-19
O=C(CSc1nc2ccccc2n1S(=O)(=O)c1ccccc1)N1CCCC1	-5	3	i	4	4	3	3	/
Cc1onc(-c2ccccc2Cl)c1C(=O)N1CCOC12CCN(c1cccc(F)n1)CC2	-10	9	i	/	-6	-1	12	/
CCN(CC)S(=O)(=O)c1ccc(N2CCOCC2)c(NC(=O)CC2OC(=O)c3ccccc32)c1 (stereo not given)	/	/	i	-1	-5	-1	-5	-10
O=C(O)c1ccc(S(=O)(=O)N2CCCCCC2)cc1	-5	-6	i	19	1	6	7	-14
Cc1ccnc(NC2(C(F)(F)F)N=C(c3ccccc3)NC2=O)c1 (stereo not given)	-7	-6	i	-14	8	4	-39	-7
CCC(C)(C)NC(=O)C(c1ccc(F)cc1)N(CCOC)C(=O)CCC(=O)Nc1nccs1 (stereo not given)	-1	-10	i	-2	-3	0	4	-5
CC(C)(C(=O)N1CCC1(C)C(=O)NS(=O)(=O)c1cccc(C#N)c1)c1ccccc1 (stereo not given)	/	/	/	/	-9	4	0	-13
COc1ccc(C(=O)OC(C)C(=O)NCC2CCCCC2)cc1S(=O)(=O)N1CCOCC1 (stereo not given)	/	/	/	-5	-2	1	17	-13
CN(C(=O)c1cccc(Nc2ccc(-c3ccc4c(c3)OCCO4)nn2)c1)C1CCCCC1	-13	13	/	23	0	-14	/	-23
CNC(=O)N(O)C1N(/N=C/c2c(F)cccc2Cl)C(=S)SC1(C)C (stereo not given)	-8	-8	i	4	0	-1	-11	-19
CC(=NCC1CCCO1)c1c(O)[nH]c(=O)[nH]c1=O (stereo not given)	-2	-3	i	-4	-1	2	/	-19
CSc1nc2n(n1)C(c1cccs1)C1=C(CCCC1=O)N2 (stereo not given)	-6	2	i	2	6	1	-5	-3
CCOC(=O)C1CCCN(C(=O)CSc2ccccc2)C1 (stereo not given)	-2	-9	i	-7	4	5	-2	/
O=S(=O)(c1cnccc1N1CCN(CCO)CC1)N1CCCC1	/	/	/	/	-8	3	2	-13
O=C(N/N=C/c1cc2c(cc1Br)OCO2)c1cc2ccccc2o1	-2	-5	i	-2	-1	-2	-34	-15
Cc1cc(C(=O)N2CCC2(C)C(=O)Nc2cc(C(C)(C)C)nn2C)nn1C (stereo not given)	/	/	/	/	-1	3	28	12
COc1ccc([C@@H]2CC=C(C(=O)O)[C@H](c3ccccc3)N2S(=O)(=O)c2ccc(C)cc2)cc1OC	/	/	/	7	-4	2	5	-10
Cc1ccccc1C(=O)N1CCC2CC1c1cc(-c3ccc(F)cc3)ccc12 (stereo not given)	/	/	/	/	-1	-13	-5	6
Cc1oc(=O)c(NC(=O)c2cccc(Cl)c2)cc1C(=O)c1ccccc1	-3	4	i	?	-1	2	-247	-27
O=C(CSc1ncnc2ccccc12)N1CCCC1	-1	0	i	-6	-6	-1	0	-11
O=C(Nc1ccc(F)cc1)C(Sc1nc2ccccc2[nH]1)c1ccccc1 (stereo not given)	-7	0	i	29	-1	-3	0	/
O=C(NCc1ccco1)C(c1ccncc1)N(C(=O)Cn1nnc2ccccc21)c1ccccc1 (stereo not given)	-3	-2	i	/	3	4	-12	-14
CCCCCc1c(C)nc(NCc2ccccc2)[nH]c1=O	2	-1	i	-8	12	1	-16	-7
Cc1ccc(NC(=O)CSc2nnc(-c3cnccn3)n2Cc2ccco2)cc1C	0	10	i	-10	1	1	-26	-15
Cc1cc(OCC(=O)NC(Cc2ccc(Cl)cc2)C(=O)O)c2c(C)c(C)c(=O)oc2c1 (stereo not given)	8	-11	i	-11	2	4	/	3
Cc1ccc(Cl)c(OCC(=O)OCC(=O)c2ccc[nH]2)c1	/	/	/	-19	2	0	/	-18
CN(C)C(=O)CCN1CCOCC1	-3	-6	i	-2	-1	1	/	5
COc1ccccc1NC(=O)CSc1ccc2nnc(-c3ccccn3)n2n1	12	13	i	-16	0	1	-9	4
CCOC(=O)C1=C(C)N(C[C@@H]2CC[C@@H](Cc3ccc(-c4ccccc4)cc3)O2)C(=O)NC1c1ccc(SCc2ccco2)c([N+](=O)[O-])c1 (stereo not given in full)	/	/	/	/	2	2	32	-11
O=C(CSc1ncnc2c1nnn2-c1ccc(F)cc1)NCC1CCCO1 (stereo not given)	28	-11	i	-10	1	4	/	-10
COc1ccc(NC(=O)c2ccc3c(c2)C(=O)N(CC2CCCO2)C3=O)cc1 (stereo not given)	-8	3	i	-7	1	2	-2	-14
Cc1ccc(S(=O)(=O)Nc2nc(C)c(NC(=O)Nc3ccc(Cl)cc3Cl)s2)cc1	-4	1	i	/	-2	-1	-31	-7
O=C(COC(=O)c1cccnc1Cl)Nc1ccc2c(c1)OCCO2	11	-6	i	-6	3	6	2	-17
COc1ccc(-c2c(C#Cc3ccsc3)c3ccccc3n2C)cc1	47	19	i	6	-3	0	-22	12
COc1ccc(NS(=O)(=O)c2cnc[nH]2)cc1	-4	-5	i	25	-3	0	-5	/
COCCN1CC(CNC(=O)c2cc(COc3ccc(C)c(C)c3)on2)CC1=O (stereo not given)	-7	-1	i	6	0	0	0	-12
COc1cc(-c2nc3sc(C)c(C)c3c(=O)o2)cc(OC)c1OC	8	3	i	-12	4	-1	2	4
Cc1ccc(S(=O)(=O)N2CCN(C(=O)c3cc(-c4cccs4)nn3-c3ccccc3)CC2)cc1	/	/	i	3	3	2	/	-15
O=C(CCNc1ccc(F)cc1)c1cccc([N+](=O)[O-])c1	5	-2	i	4	-2	-1	-12	-11
CCCCc1c(C)nc2ccc(Br)cc2c1SC(N)N	-8	18	/	/	-3	3	14	/
O=C(NCc1ccc(F)cc1)c1cc(C2CCCCN2S(=O)(=O)Cc2ccccc2)on1 (stereo not given)	/	/	/	/	0	1	-80	-8
O=C1c2ccc(Cl)cc2S(=O)(=O)c2cccc(C(=O)N3CCN(c4ccc(Cl)cn4)CC3)c21	/	/	/	9	8	-5	11	-6
CCNc1c2c3c(cccc3n(C)c1=O)C(=O)c1ccccc1-2	?	?	i	12	/	/	/	/
COc1ccccc1CNC(=O)CSc1nc(N)c(C#N)c(-c2cccs2)c1C#N	-7	3	i	-1	2	-6	/	-10
CCCc1cc(N2CCCC(C(=O)NCc3ccc4c(c3)OCO4)C2)n2ncnc2n1 (stereo not given)	-6	-13	i	-9	-3	-1	/	-20
CCOCC(=O)Nc1nc2ccc(S(C)(=O)=O)cc2s1	-3	-18	i	-2	5	1	/	-11
CCN(CC)S(=O)(=O)c1ccc(F)c(C(=O)NCCC(C)C)c1	-8	-2	i	-16	5	5	-55	-11
CC(=O)N1CCc2cc(S(=O)(=O)Nc3ccc(C)cc3C)ccc21	-3	7	i	-3	2	-7	-6	-32
COC(=O)c1ccc(CSc2n[nH]c(-c3ccccc3)n2)o1	8	4	i	17	5	2	5	/
COC(=O)CNC(=O)c1cc(OC)cc(OC)c1	4	8	i	-7	4	4	0	/
COc1ccc(CNC(=O)c2ccc(-c3c(C)noc3C)c3ccoc23)cc1OC	/	/	/	/	9	-5	1	-9
O=[N+]([O-])c1cccc(/C=N/Nc2cc(N3CCOCC3)ncn2)c1	-8	-6	i	3	-7	-2	17	-15
CCc1cc(C(c2ccncc2)N2CCN(C)CC2)c(NC(=O)c2ccccc2)s1 (stereo not given)	-6	61	i	0	-4	-4	11	/	eIF4H inh retest=-13;PABP FP inh retest=6
Cc1cc(F)ccc1N1CCC(N2CCN(C)C(CCO)C2)CC1 (stereo not given)	24	3	i	31	-3	-2	-13	2
COC(=O)Nc1ccc(S(=O)(=O)N2CCCC(C(=O)N3CCCCC3)C2)cc1 (stereo not given)	1	-9	i	-9	2	-1	1	/
CO[C@@H]1CN(C)C(=O)c2cc(NS(=O)(=O)c3ccc(C)cc3)ccc2OC[C@H](C)N(Cc2nccs2)C[C@H]1C	/	/	/	/	3	3	-8[16.7 µM]	2
Cc1cc(C(=O)NCCC2=CCCCC2)ccc1[N+](=O)[O-]	-2	-2	i	3	-3	-10	-14	7
COc1cc(/C=C/C(=O)O)cc(S(=O)(=O)NCCCO)c1OC	6	4	i	-6	0	3	/	-9
